# Mtb bLac sens: beta-lactam sensitization of Mtb H37Rv, H37Rv; M. tuberculosis H37Rv growth with meropenem, percent inhibition; hits of this screen are not shown here; inhibition, % at 25 µM; 0.27% of 330,000 active; AID 434955, 2010;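 active means about 74% or more and at least 40 points above the plate without the antibiotic, then above 30% in a dose series; inconclusive means first-round hits that could not be retested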;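 further: growth measured after seven days incubation then overnight dye step; 0% = bacteria only wells and 100% = bacteria with antibiotic; twin plates without the antibiotic show which effects depend on it; some results filed as inactive read as strong as hits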
# An asterisk follows results filed as active; ? = inconclusive. An excerpt; the hit share may differ from the screen's.
SMILES,Mtb bLac sens
Cc1ccc2nc(-c3ccccc3)cc(C(=O)Nc3cccnc3)c2c1,-0.8
O=C(NCCc1ccccn1)C1CCCN1S(=O)(=O)c1ccc(Cl)cc1 (stereo not given),1.8
CCCn1c(N)c(N(CCOC)C(=O)CSCC(=O)Nc2ccc(C)cc2)c(=O)[nH]c1=O,-3.9
CCc1ccc(C(=O)C(C)OC(=O)Cn2[nH]c(=O)c3ccccc3c2=O)cc1 (stereo not given),1.6
O=C(COC(=O)/C=C/c1cccc(F)c1)NC(=O)NCc1ccccc1,4.4
O=C(Nc1ccc(N2CCCCCC2)cc1)c1ccc[nH]1,7.3
CN(C)S(=O)(=O)N1CCN(CC(=O)Nc2ccc(F)cc2)CC1,-1.5
Oc1cc(Nc2cccnc2)cc2cccnc12,89.5
CCOc1ccccc1N1CCN(CC(=O)N(C2CCCC2)C2CCS(=O)(=O)C2)CC1 (stereo not given),1.2
CCOc1cc(N2CCOCC2)c(OCC)cc1NC(=O)c1cccc(S(=O)(=O)N2CCOCC2)c1,3.9
CC(NC(=O)c1ccco1)C(=O)N1CCN(c2cccc(Cl)c2)CC1 (stereo not given),5.8
CS(=O)(=O)N(CC(=O)O)c1cc(C(F)(F)F)ccc1Cl,-2.2
O=C(CC1C[C@H](C(=O)N2CCOCC2)[C@@]2(CCC3CCCC3)c3[nH]c4ccccc4c3CCN2C1=O)NCCCn1ccnc1 (stereo not given in full),-3.0
COc1ccc(OCC(=O)OC(C)CN2CCCCC2)cc1 (stereo not given),-4.1
O=C(COC(=O)C1CCC(N2C(=O)C3C4CCC(C4)C3C2=O)CC1)c1ccc(F)cc1 (stereo not given),32.1
CC1CCN(Cc2nnnn2CCCC(=O)NC(c2ccccn2)C(F)(F)F)CC1 (stereo not given),?
CCN[C@H]1C[C@H](C)S(=O)(=O)c2sc(S(N)(=O)=O)cc21,-3.0
CC(=O)Nc1ccc(SCC(=O)c2cc(C)ccc2C)cc1,1.7
COc1ccc(C(=O)N2CCc3ccccc32)cc1S(=O)(=O)N1CCOCC1,-2.9
Cc1ccc(C(=O)Nc2sc3c(c2C(=O)O)CCC(C)C3)o1 (stereo not given),5.0

# Grouped by structure, the entries above with four or more nitrogen atoms (4)
SMILES,Mtb bLac sens
CCCn1c(N)c(N(CCOC)C(=O)CSCC(=O)Nc2ccc(C)cc2)c(=O)[nH]c1=O,-3.9
CN(C)S(=O)(=O)N1CCN(CC(=O)Nc2ccc(F)cc2)CC1,-1.5
O=C(CC1C[C@H](C(=O)N2CCOCC2)[C@@]2(CCC3CCCC3)c3[nH]c4ccccc4c3CCN2C1=O)NCCCn1ccnc1 (stereo not given in full),-3.0
CC1CCN(Cc2nnnn2CCCC(=O)NC(c2ccccn2)C(F)(F)F)CC1 (stereo not given),?

# Other results follow.
SMILES,Mtb bLac sens
O=C1NC(Cc2ccc(O)cc2)c2nc3ccc(Cl)cc3c(=O)n2-c2ccccc21 (stereo not given),3.9
Cc1cccc(NC(=O)CCCN=C2NS(=O)(=O)c3ccccc32)c1C,-2.7
CN(C)Cc1ccc(CNC(=O)c2ccc(Cl)c(S(=O)(=O)NC3CC3)c2)cc1,-6.8
O=C(Cn1ccc(NC(=O)OCc2ccccc2)nc1=O)NCCc1c[nH]c2ccccc12,-3.1
CN(c1ccc(OCC(=O)NC2CCC(O)CC2)cc1)S(=O)(=O)c1ccc(Cl)cc1 (stereo not given),-0.3
Cc1ccc(C)c(NC(=O)COC(=O)c2ccc3c(c2)OCCO3)c1,-7.3
CCn1nc(C(=O)N2CCc3ccccc32)c2ccccc2c1=O,1.4
CSc1ccccc1NC(=O)COc1ccc2c(c1)OCO2,11.7
O=C(CN1C(=O)/C(=C2/SC(=S)N(CCS(=O)(=O)O)C2=O)c2ccccc21)Nc1cccc(C(F)(F)F)c1,5.0
O=[N+]([O-])c1ccccc1S(=O)(=O)N1CCCc2ccccc21,-1.8
CCOC(=O)C1=CN2CCCC[C@@H]2CC1=O,2.9
O=S(=O)(c1cccc(C(F)(F)F)c1)N1CCN(S(=O)(=O)c2ccc3c(c2)OCCO3)CC1,-0.5
O=C(NCc1ccc(F)cc1)c1cc(S(=O)(=O)N2CCCCC2)ccc1N1CCOCC1,-5.6
N#Cc1cccc(NC(=O)CN2CCN(Cc3ccccc3)CC2)c1,2.1
CC(Oc1ccc2c(-c3ccccc3)cc(=O)oc2c1)C(=O)NCCCn1ccnc1 (stereo not given),-4.4
COCc1c(C(=O)OCc2nc3ccsc3c(=O)[nH]2)oc2ccccc12,-2.3
CCOC(=O)c1c(C)[nH]c(C)c1C(=O)COC(=O)c1ccc(S(=O)(=O)C(F)F)cc1,0.6
C#CCOCCOCCOCCNc1nc(N2CCOCC2)nc(N2CCN(C(=O)CCCCCCCCCCNC(=O)[C@H](CO)n3cc(CCCCCN)nn3)CC2)n1,-11.1
OCC[C@H]1C[C@@H](O)[C@H](O)[C@]2(Cc3ccccc3CO2)O1,-7.0
O=C(CNc1cccc(C(F)(F)F)c1)Nc1cccc(S(=O)(=O)N2CCCC2)c1,-4.3
COc1cccc(NC(=O)COC(=O)c2ccc(C)c(S(=O)(=O)N3CCCCC3)c2)c1,-1.4
Cc1ccc(S(=O)(=O)NCC(=O)NCC2CCCCC2)cc1C,-0.8
Cc1cccc(NC(=O)c2ccc(OCc3c(C)noc3C)cc2)c1C,-3.9
COc1cc(C(=O)N2CCNCC2)cc(OC)c1OC,-5.6
Cc1ccc(C(C(=O)NCC2CCCO2)N(C(=O)c2snc(C(N)=O)c2N)c2ccc3c(c2)OCCO3)cc1 (stereo not given),-0.5
CC(C)[C@]1(c2ccccc2)ON(c2ccccc2C(F)(F)F)C1=O,-0.7
Cc1ccsc1C(=O)OCC(=O)Nc1cccc(F)c1,-6.5
CC1CCC2(CC1)NC(=O)N(CC(=O)N1CCN(C(=O)c3ccco3)CC1)C2=O (stereo not given),-3.4
O=C(Nc1ccc(F)c(F)c1)c1ccccc1,-8.2
O=C(CSc1ccccc1)NCC(c1ccco1)N1CCCCC1 (stereo not given),2.9
CN(Cc1ccccc1)C(=O)CN1CCN(S(=O)(=O)c2ccc(Cl)c(Cl)c2)CC1,2.0
Cc1ccc(S(=O)(=O)OCCC2=CC(=O)CCN2Cc2ccccc2)cc1,-5.0
CCN(Cc1ccc2c(c1)OCCO2)C(=O)CN1C(=O)NC2(CCCCC2)C1=O,1.4
CC(OC(=O)c1ccccc1NCCO)C(=O)Nc1ccnn1C(C)C (stereo not given),2.5
CC(NC(=O)C1=CC=CN2CCS(=O)(=O)N=C12)c1ccc(Cl)cc1Cl (stereo not given),-8.8
COc1ccccc1C(=O)NNS(=O)(=O)c1ccc(F)cc1,-2.5
COc1cccc(N(CC(=O)NC2CCCC2)C(=O)CCC(=O)Nc2nccs2)c1,-1.7
CN(C)S(=O)(=O)c1ccc(C(=O)NCC2(N3CCOCC3)CCCCC2)cc1,-1.6
CC(C(=O)Nc1ccc([N+](=O)[O-])cc1Cl)N1CCN(S(=O)(=O)c2cccs2)CC1 (stereo not given),3.8
CCN(CC(=O)Nc1cc(Cl)cc(Cl)c1)CC(=O)NC1CCS(=O)(=O)C1 (stereo not given),-6.7
COc1ccc(NC(=O)C2CCCC2)cc1S(=O)(=O)N1CCOCC1,10.6
CC(C)(C)OC(=O)C[C@H]1C/C=C\C[C@@H](CC(=O)N(CCO)Cc2ccccc2)C(=O)N2CCC[C@H]2COC1=O,-10.3
O=C(OCc1cc(Cl)cc2c1OCOC2)c1cccnc1Cl,2.7
Cc1c(Cl)cnc(NC(=O)COC(=O)C2CC2)c1Cl,-3.8
O=C1CS(=O)(=O)N(Cc2cccc(F)c2)c2ccc(Br)cc21,-0.8
COC(=O)[C@H](Cc1ccccc1)NS(=O)(=O)N[C@@H](Cc1ccccc1)C(=O)OC,7.9
Cc1ccc2c(c1)[C@H]1[C@H](CO2)[C@H](c2ccccc2)[C@]2(C)C(=O)N(Cc3ccc(Cl)cc3)CC(=O)N12,21.1
O=C(NCc1ccc(F)cc1)C1CCCN1S(=O)(=O)c1ccccc1C(F)(F)F (stereo not given),-3.2
CCOc1ccc(NC(=O)CN(C)C(=O)c2ccccc2OCc2cccc(C)c2)cc1OCC,-5.6
CCOC(=O)c1cc(-c2ccccc2C)n(CC2CC(c3cccc([N+](=O)[O-])c3)=NO2)n1 (stereo not given),1.9
N#Cc1cccc(NC(=O)CSc2cccc[n+]2[O-])c1,4.6
N#Cc1ccc(Cl)cc1NC(=O)COC(=O)c1cccc(S(=O)(=O)N2CCOCC2)c1,-3.7
C=CCn1cnnc1SCC(=O)N(C1CCCCC1)C1CCS(=O)(=O)C1 (stereo not given),4.2
COc1ccc(C(=O)COC(=O)/C=C/c2ccccc2[N+](=O)[O-])cc1,-3.0
COc1ccc(C(=O)N2CCCC(C(N)=O)C2)cc1S(=O)(=O)N1CCOCC1 (stereo not given),-1.6
Cc1ccc(C(=O)NCC(=O)NCCCc2ccccc2)s1,-7.3
CCOC(=O)[C@H]1[C@H]2COc3ccccc3[C@@H]2N2C(=O)c3cc(OC)ccc3NC(=O)[C@@]12C,10.0
Cc1ccc(C(=O)Nc2ccccc2N2CCOCC2)cc1S(=O)(=O)N1CCOCC1,4.2
Cc1ccccc1-n1c(C)nnc1SC(C)C(=O)NCC1CCCO1 (stereo not given),-8.5
Cc1c(NC(=O)C(C)SC(=S)N2CCCC2)c(=O)n(-c2ccccc2)n1C (stereo not given),6.9
# Other records follow.
SMILES,Mtb bLac sens
CSCCC(NC(=O)c1ccc(Cl)cc1)C(=O)OCC(=O)N1CCCC1=O (stereo not given),-8.8
CSc1ccccc1C(=O)Nc1ccc(S(=O)(=O)NC2=NCCCCC2)cc1,-6.8
CCN1C(=NCc2ccco2)N[C@@H](c2cccc(C(F)(F)F)c2)C(C(=O)OC)=C1C,2.2
Cn1nc(C(=O)Nc2ccc(-n3cnnn3)cc2)c2ccccc2c1=O,-8.6
COc1ccc(C2=NOC(Cn3nc(-c4ccccc4)cc3C(=O)NCc3cccs3)C2)cc1 (stereo not given),2.6
C[C@H](CO)N1C[C@H](C)[C@@H](CN(C)Cc2ccc(Cl)c(Cl)c2)Oc2c(NC(=O)c3ccncc3)cccc2C1=O,6.8
CCOC(=O)[C@H](CCc1ccccc1)N[C@@H](C)C(=O)N1CCC[C@@H]1C(=O)O,0.0
O=C(c1cccc(Br)c1)c1coc2ccc(O)cc12,29.6
CCN(Cc1nc2cc(Cl)ccc2c(=O)[nH]1)C(=O)c1ccc(C)c(NC(=O)c2ccco2)c1,-4.4
O=C(COC(=O)CNC(=O)c1ccccc1Cl)NC1CC1,1.2
O=C(NN=Cc1ccc(O)cc1)c1ccccc1NS(=O)(=O)c1cccs1,0.3
O=C(COC(=O)C12CC3CC(CC(O)(C3)C1)C2)Nc1ccc(Cl)c(S(=O)(=O)N2CCOCC2)c1,1.9
CC(=O)OC[C@]12CC[C@H]3[C@@](C)(CC[C@H]4C(C)(C)CCC[C@]34C)[C@@H]1C[C@@H](C1=CC(=O)O[C@@H]1OC(C)=O)O2,39.9
CCN1CCN(c2ccccc2NC(=O)c2ccc(-n3cccn3)cc2)CC1,1.8
O=C(NCC1CCCO1)c1cccc(NC(=O)c2ccccc2)c1 (stereo not given),2.8
COc1ccccc1NC(=O)COC(=O)c1c(C)nn(-c2ccccc2)c1C,-0.4
CC(C)(C)OC(=O)NCCCCCc1cn([C@@H](CO)C(=O)NCCCCCCCCCCC(=O)N2CCN(C(=O)OC(C)(C)C)CC2)nn1,87.9
CCOC(=O)N1CCN(C(=O)C(NC(=O)c2ccc(C(C)(C)C)cc2)C(C)C)CC1 (stereo not given),4.7
CCc1sc(C(=O)NCCCn2ccnc2)cc1Br,0.0
C[C@@H](C(=O)NNC(=O)c1ccc(Cl)cc1)N1C(=O)C2CC=CCC2C1=O (stereo not given in full),-0.4

# Structures above that have a nitro group on carbon:
SMILES,Mtb bLac sens
O=[N+]([O-])c1ccccc1S(=O)(=O)N1CCCc2ccccc21,-1.8
CC(C(=O)Nc1ccc([N+](=O)[O-])cc1Cl)N1CCN(S(=O)(=O)c2cccs2)CC1 (stereo not given),3.8
CCOC(=O)c1cc(-c2ccccc2C)n(CC2CC(c3cccc([N+](=O)[O-])c3)=NO2)n1 (stereo not given),1.9
COc1ccc(C(=O)COC(=O)/C=C/c2ccccc2[N+](=O)[O-])cc1,-3.0

# Back to the main list, starting three compounds before the break.
SMILES,Mtb bLac sens
CCOC(=O)N1CCN(C(=O)C(NC(=O)c2ccc(C(C)(C)C)cc2)C(C)C)CC1 (stereo not given),4.7
CCc1sc(C(=O)NCCCn2ccnc2)cc1Br,0.0
C[C@@H](C(=O)NNC(=O)c1ccc(Cl)cc1)N1C(=O)C2CC=CCC2C1=O (stereo not given in full),-0.4
O=C(NNC(=O)c1ccccc1F)c1ccc(Cl)c(S(=O)(=O)N2CCOCC2)c1,2.3
CCN1CCN(c2ccc(NC(=O)c3ccc(OC)c(S(=O)(=O)N4CCCC4)c3)cc2)CC1,2.4
O=C(NC(=S)NN1CCOCC1)c1cc(Br)ccc1Cl,2.0
COc1ccc(NS(=O)(=O)c2cccc(C(=O)NN=Cc3ccc(OC)cc3OC)c2)cc1,5.0
Cc1ccccc1S(=O)(=O)Nc1ncnc2ccccc12,-2.7
CC(=O)c1ccc(-c2ccc(C(=O)Nc3nc(C)c(C(C)=O)s3)o2)cc1,1.0
Cn1nc(C(=O)OCC(=O)c2ccc(Br)cc2)c2ccccc2c1=O,5.2
CCc1ccc(OCCNc2cc(N3CCNC(C)C3)ccc2[N+](=O)[O-])cc1 (stereo not given),99.8
CC(=O)Nc1cccc(N)c1,-3.2
N#Cc1cccc(S(=O)(=O)NCc2nnc3ccccn23)c1,-0.6
CCCN(CC(=O)Nc1ccccc1OC)C(=O)c1ccccn1,-0.2
O=C1CCN(Cc2ccccc2)C=C1c1cccc(O)c1,-6.8
C[C@]12CC[C@H](O)C[C@H]1CC[C@@H]1[C@@H]2CC[C@]2(C)C(=O)CC[C@@H]12,4.0
CCCN(C(=O)c1cc(Cl)nc2ccccc12)c1c(N)n(Cc2ccccc2)c(=O)[nH]c1=O,3.1
C[C@@H]1CN([C@H](C)CO)C(=O)c2cc(NS(=O)(=O)c3cn(C)cn3)ccc2O[C@H]1CN(C)C(=O)Nc1ccccc1,4.9
O=C(C[C@@H]1C/C=C\C[C@H](Cc2ccc(F)cc2)C(=O)OC[C@H]2CCCN2C1=O)N[C@H](CO)Cc1ccccc1,0.9
